Screens from PubChem.
Vaccinia inh: Vaccinia orthopox stage-specific inhibition | Vaccinia-infected cells, mCherry/Venus stage reporter fluorescence; hits give low values; some inactives read as strong as hits | activity change (mCherry), % (test concentration not listed) | actives 0.01% (n = 89,000) | AID 1053133;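 active means mCherry past -33% and 40 or more points under the early reporter, replicates agreeing; inconclusive means past -33% without that gap or agreement; tested in A549 cells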;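 further: scaled between vehicle wells and reference inhibitor wells; 23 nL library stock went into each well; one replicate is shown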
Vaccinia inh Venus: also measured in Vaccinia inh; calls as there; activity change (Venus), %; measured here: Venus reporter, other viral stage;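 negative = less Venus signal; first of two replicates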
* hit, by the source's call; ? = inconclusive; / = not tested or not shown; & = joins results of further samples.

The first 4 compounds (preview)
SMILES	Vaccinia inh	Vaccinia inh Venus
O=C(C[C@@H]1CC[C@@H]2[C@H](COC[C@@H](O)CN2S(=O)(=O)c2cccc(F)c2)O1)Nc1ccc(-c2ccccc2)cc1	?	/
C[C@@H]1CN([C@H](C)CO)C(=O)c2c(c3ccccc3n2C)-c2ccccc2CO[C@@H]1CN(C)CC1CCCCC1	?	/
O=C(NC1CCCC1)[C@@H]1[C@@H](CO)[C@@H]2Cn3c(ccc(-c4ccccc4)c3=O)[C@@H]2N1CCc1ccccc1	-26.5	-22.0
C=C[C@H](COC(C)=O)N(C(=O)OC(C)(C)C)S(=O)(=O)c1ccc(Br)cc1	4.8	9.1

Results, from the start:
SMILES	Vaccinia inh	Vaccinia inh Venus
O=C(C[C@@H]1CC[C@@H]2[C@H](COC[C@@H](O)CN2S(=O)(=O)c2cccc(F)c2)O1)Nc1ccc(-c2ccccc2)cc1	?	/
C[C@@H]1CN([C@H](C)CO)C(=O)c2c(c3ccccc3n2C)-c2ccccc2CO[C@@H]1CN(C)CC1CCCCC1	?	/
O=C(NC1CCCC1)[C@@H]1[C@@H](CO)[C@@H]2Cn3c(ccc(-c4ccccc4)c3=O)[C@@H]2N1CCc1ccccc1	-26.5	-22.0
C=C[C@H](COC(C)=O)N(C(=O)OC(C)(C)C)S(=O)(=O)c1ccc(Br)cc1	4.8	9.1
COc1ccc(S(=O)(=O)Nc2ccc3c(c2)C(=O)N([C@@H](C)CO)C[C@@H](C)[C@@H](CN(C)S(=O)(=O)c2ccccc2)OCCCC[C@@H](C)O3)cc1	?	/
COc1ccc(NC(=O)N(C)C[C@@H]2OCCCC[C@H](C)Oc3ccc(NC(=O)Nc4c(C)noc4C)cc3C(=O)N([C@@H](C)CO)C[C@H]2C)cc1	24.7	10.9
CN(C)C(=O)c1cccc(-c2cccc(-c3nc(C(=O)N4CCOCC4)cc4c3[C@@H](CCO)N([S@](=O)C(C)(C)C)C4)c2)c1	14.6	16.6
CC(C)CC#Cc1ccc2c(c1)O[C@H](CN(C)C(=O)NC1CCCC1)[C@@H](C)CN([C@@H](C)CO)S2(=O)=O	?	/
C[C@H]1CN([C@@H](C)CO)C(=O)c2cc(C#CCN(C)C)cnc2O[C@@H]1CN(C)C(=O)NC1CCCCC1	27.4	18.9
O=C(Nc1ccc2c(c1)OCO2)N[C@@H]1CC[C@@H](CC(=O)N2CCN(c3ccccc3)CC2)O[C@@H]1CO	11.2	10.7
Cc1cccc(S(=O)(=O)N2C[C@H](O)COC[C@@H]3O[C@H](CC(=O)NCc4ccncn4)CC[C@H]32)c1	8.4	-5.1
CO[C@H]1CN(C)C(=O)c2ccc(NC(=O)NC(C)C)cc2OC[C@@H](C)N(Cc2ccccn2)C[C@H]1C	8.0	8.6
CO[C@H]1CN(C)C(=O)c2cc(NC(=O)C3CCOCC3)ccc2OC[C@H](C)N(CC2CC2)C[C@@H]1C	11.6	17.0
COCC(=O)Nc1ccc2c(c1)C(=O)N(C)C[C@H](OC)[C@H](C)CN(Cc1ccccc1F)[C@H](C)CO2	-13.6	-10.3
CCC(=O)Nc1ccc2c(c1)C(=O)N(C)C[C@H](OC)[C@H](C)CN(CC1CCCCC1)[C@@H](C)CO2	-6.5	-9.1
COc1ccc(NC(=O)Nc2ccc3c(c2)[C@H]2C[C@H](CC(=O)N(C)C)O[C@H](CO)[C@H]2O3)cc1	10.3	9.5
C[C@H]1CN([C@@H](C)CO)C(=O)c2cc(C#Cc3ccc(F)cc3)cnc2O[C@@H]1CN(C)C(=O)Nc1ccc(F)cc1	-18.4	-11.0
CN1[C@@H]2c3ccc(-c4ccccc4F)c(=O)n3C[C@@H]2[C@@H](CO)[C@@H]1C(=O)NCc1ccc(F)cc1	-11.3	-2.1
Cc1noc(C)c1NC(=O)Nc1ccc2c(c1)C(=O)N([C@H](C)CO)C[C@H](C)[C@@H](CN(C)Cc1ccc(Cl)c(Cl)c1)OCCCC[C@@H](C)O2	-17.8	-17.6
COc1ccc(NC(=O)N(C)C[C@H]2OCCCC[C@H](C)Oc3ccc(NS(=O)(=O)c4ccc(C)cc4)cc3C(=O)N([C@@H](C)CO)C[C@@H]2C)cc1	-14.3	-9.7
COc1ccc(OC(=O)N(C)C[C@@H]2OCc3cn(nn3)CCCC(=O)N([C@@H](C)CO)C[C@H]2C)cc1	12.6&16.9	15.7&14.1
COc1ccc(NC(=O)N[C@@H]2C=C[C@@H](CC(=O)NCc3ccccn3)O[C@@H]2CO)cc1	0.6	4.8
CC(=O)N1CC(=O)N2[C@@H](CO)[C@@H](c3ccc(C#CC(C)C)cc3)[C@@H]2C1	28.3	7.2
CC(=O)NC[C@@H]1[C@@H](c2ccc(-c3ccccc3F)cc2)[C@@H](CO)N1C(=O)C1CC1	3.2	15.6
CO[C@H]1CN(C)C(=O)c2ccc(NS(C)(=O)=O)cc2OC[C@@H](C)N(C(=O)NC(C)C)C[C@H]1C	-2.8	3.0
Following part
SMILES	Vaccinia inh	Vaccinia inh Venus
C[C@@H]1CN([C@H](C)CO)S(=O)(=O)c2ccc(-c3cncnc3)cc2O[C@H]1CN(C)C(=O)Cc1ccncc1	16.3	11.0
COc1ccc(CN(C)C[C@@H]2Oc3ccc(NC(=O)c4ccncc4)cc3CC(=O)N([C@H](C)CO)C[C@H]2C)cc1	9.6	0.4
COc1ccc(NC(=O)N[C@H]2CC[C@@H](CCNC(=O)CCN3CCCCC3)O[C@@H]2CO)cc1	-7.6	-1.1
C[C@@H]1CN([C@H](C)CO)C(=O)c2cccc(NC(=O)C3CCCCC3)c2O[C@H]1CN(C)S(C)(=O)=O	21.8	13.7
C[C@@H]1CN([C@H](C)CO)C(=O)Cc2cc(NC(=O)CCC(F)(F)F)ccc2O[C@H]1CN(C)C(=O)NC1CCCCC1	-5.2	-7.1
C[C@H]1CN([C@@H](C)CO)C(=O)c2cc(NS(=O)(=O)c3cn(C)cn3)ccc2O[C@@H]1CN(C)Cc1ccc(C(=O)Nc2ccccc2N)cc1	27.3	4.5
COc1ccc(S(=O)(=O)N(C)C[C@H]2Oc3ccc(NC(=O)Cc4cn(C)c5ccccc45)cc3CC(=O)N([C@H](C)CO)C[C@H]2C)cc1	-16.9	-18.7
O=C(CN1CCOCC1)N1CCCCN2[C@H](C1)[C@H](c1ccc(C#Cc3ccccc3F)cc1)[C@@H]2CO	?	/
Cc1ccc(S(=O)(=O)Nc2ccc3c(c2)C(=O)N([C@@H](C)CO)C[C@@H](C)[C@H](CN(C)S(=O)(=O)c2ccc(F)cc2)OCCCC[C@@H](C)O3)cc1	?	/
C[C@H](CO)N1C[C@H](C)[C@H](CN(C)Cc2ccncc2)Oc2c(NS(C)(=O)=O)cccc2C1=O	11.6	5.3
CC(C)NC(=O)N1Cc2cc(C(=O)NC3CCC3)nc(-c3cccc(-c4cncnc4)c3)c2[C@@H]1CCO	-0.9	-1.5
O=C(Nc1ccccc1)[C@@H]1[C@@H](CO)[C@@H]2Cn3c(cccc3=O)[C@H]1N2C(=O)c1ccc(F)cc1	-0.3	10.6
CC(C)NC(=O)Nc1ccc2c(c1)C(=O)N([C@H](C)CO)C[C@@H](C)[C@@H](CN(C)C)O2	27.0	20.7
CN1C(=O)c2cc(NC(=O)NC3CCCC3)ccc2OC[C@@H]2O[C@H](CC(=O)NCC3CC3)CC[C@@H]21	2.5	6.4
CCS(=O)(=O)Nc1ccc2c(c1)C(=O)N(C)C[C@@H](OC)[C@H](C)CN(C(=O)CN(C)C)[C@H](C)CO2	8.0	2.9
C[C@H](CO)N1C[C@H](C)[C@@H](CN(C)C)Oc2ccc(NC(=O)Nc3ccc4c(c3)OCO4)cc2CC1=O	5.6	6.5
O=C(C[C@@H]1CC[C@@H]2[C@H](COC[C@H](O)CN2CCC(F)(F)F)O1)N1CCC(Cc2ccccc2)CC1	-1.8	3.5
COc1ccccc1C#Cc1ccc([C@@H]2[C@@H](C#N)N(C(=O)C3CC3)[C@H]2CO)cc1	-22.4	-15.8
Cc1noc(C)c1NC(=O)Nc1ccc2c(c1)CC(=O)N([C@H](C)CO)C[C@H](C)[C@@H](CN(C)C(=O)Nc1ccccc1)O2	15.5	18.2
Cc1noc(C)c1S(=O)(=O)Nc1ccc2c(c1)C(=O)N([C@H](C)CO)C[C@H](C)[C@@H](CN(C)Cc1ccc3c(c1)OCO3)O2	7.7	2.9
COc1ccc(S(=O)(=O)N(C)C[C@H]2OCCCC[C@H](C)Oc3ccc(NC(=O)Nc4c(C)noc4C)cc3C(=O)N([C@H](C)CO)C[C@@H]2C)cc1	8.4	6.4
C[C@H](CO)N1C[C@H](C)[C@H](CN(C)Cc2ccc(Cl)c(Cl)c2)Oc2ccc(N(C)C)cc2CC1=O	-20.5	-13.7
CS(=O)(=O)Nc1ccc2c(c1)[C@@H]1C[C@H](CC(=O)NCC(F)(F)F)O[C@@H](CO)[C@@H]1O2	4.3	3.3
C[C@@H]1CN([C@@H](C)CO)C(=O)c2cccc(NC(=O)c3ccc(-c4nccs4)cc3)c2O[C@H]1CN(C)C(=O)Nc1ccc(F)cc1	11.2	5.0
COc1cccc(S(=O)(=O)N(C)C[C@@H]2Oc3ncccc3C(=O)N([C@H](C)CO)C[C@@H]2C)c1	25.3	9.4

In the list so far, two have a tert-butyl group.
SMILES	Vaccinia inh	Vaccinia inh Venus
C=C[C@H](COC(C)=O)N(C(=O)OC(C)(C)C)S(=O)(=O)c1ccc(Br)cc1	4.8	9.1
CN(C)C(=O)c1cccc(-c2cccc(-c3nc(C(=O)N4CCOCC4)cc4c3[C@@H](CCO)N([S@](=O)C(C)(C)C)C4)c2)c1	14.6	16.6

Continuation:
SMILES	Vaccinia inh	Vaccinia inh Venus
Cc1ccccc1S(=O)(=O)NCC[C@H]1CC[C@H](NS(=O)(=O)c2ccccc2C)[C@@H](CO)O1	-23.9	-17.9
COCCCNC(=O)[C@]1(Cc2ccccc2N=[N+]=[N-])N=C(c2ccc(OCCCO)cc2)O[C@@H]1c1ccccc1	-2.7	-3.6
C[C@@H]1CN([C@H](C)CO)C(=O)c2cc(NC(=O)Cc3ccccc3)ccc2O[C@@H]1CN(C)S(=O)(=O)c1cccs1	10.4	2.1
CO[C@H]1CN(C)C(=O)c2cc(NC(=O)CC(F)(F)F)ccc2OC[C@@H](C)N(C(=O)C2CC2)C[C@@H]1C	5.7	15.3
COc1cccc(CNC(=O)C[C@H]2CC[C@H](NC(=O)C3CCC3)[C@@H](CO)O2)c1	7.6	5.6
C[C@@H]1CCCCO[C@@H](CN(C)Cc2ccc(C(=O)O)cc2)[C@@H](C)CN([C@@H](C)CO)C(=O)c2cc(NC(=O)Nc3cccc4ccccc34)ccc2O1	17.6	10.8
CO[C@@H]1CC[C@@H]2CCOc3ccc(C#N)cc3C(=O)N(C)[C@@H](C)C(=O)N(C)C[C@H]1O2	14.1	9.2
O=C(C1CCCC1)N1CCCCN2[C@@H](CO)[C@H](c3ccc(-c4cccc(F)c4)cc3)[C@@H]2C1	?	/
C[C@@H]1CN([C@H](C)CO)C(=O)c2cccc(N(C)C)c2O[C@H]1CN(C)C(=O)Nc1ccc2c(c1)OCO2	4.5	-1.5
COc1ccc2c3c([nH]c2c1)[C@@H](CO)N(C(=O)CN(C)C)CC31CCN(CC2CCCC2)CC1	-27.0	-19.8
CCC(=O)Nc1ccc2c(c1)C(=O)N(C)C[C@@H](OC)[C@H](C)CN(C(=O)Cc1cccnc1)[C@@H](C)CO2	12.3	9.2
C[C@@H]1CCCCO[C@@H](CN(C)S(=O)(=O)c2cn(C)cn2)[C@H](C)CN([C@@H](C)CO)C(=O)c2cc(NS(=O)(=O)c3cccs3)ccc2O1	35.2	19.4
C[C@H]1CCCCO[C@H](CN(C)S(=O)(=O)c2ccc(Cl)cc2)[C@@H](C)CN([C@@H](C)CO)C(=O)c2cc(NC(=O)Nc3cccc4ccccc34)ccc2O1	18.0	17.7
O=C(C[C@H]1CC[C@H](NS(=O)(=O)c2ccc(F)cc2)[C@@H](CO)O1)N1CCN(c2ccccc2)CC1	10.1	0.9
C[C@H]1CN([C@@H](C)CO)C(=O)Cc2cc(NC(=O)CCC(F)(F)F)ccc2O[C@@H]1CN(C)Cc1ccncc1	11.5	4.5
CN1C(=O)c2cc(NC(=O)C3CCOCC3)ccc2OC[C@@H]2O[C@@H](CC(=O)O)CC[C@@H]21	5.0	8.5
O=C(C[C@@H]1CC[C@@H](NC(=O)Nc2ccc(C(F)(F)F)cc2)[C@H](CO)O1)NCCN1CCCC1	3.9	12.2
C[C@H]1CN([C@@H](C)CO)C(=O)c2cccc(NC(=O)c3ccncc3)c2O[C@@H]1CN(C)C(=O)Nc1ccc(F)cc1	0.5	6.8
CC(C)CC#Cc1cnc2c(c1)C(=O)N([C@H](C)CO)C[C@H](C)[C@@H](CN(C)C(=O)CN1CCOCC1)O2	20.4	2.1
O=C(NC1CCCC1)[C@@H]1[C@@H](CO)[C@@H]2Cn3c(ccc(-c4ccccc4F)c3=O)[C@H]1N2C(=O)CC1CC1	-4.3	-3.2
CCCC#Cc1ccc([C@@H]2[C@H](C#N)N(C(=O)C3CC3)[C@H]2CO)cc1	-15.8	-6.1
Cc1ccc(S(=O)(=O)N(C)C[C@H]2OCCCC[C@H](C)Oc3ccc(NC(=O)CCC(F)(F)F)cc3C(=O)N([C@@H](C)CO)C[C@@H]2C)cc1	-23.2	-18.1
C[C@H](CO)N1C[C@H](C)[C@@H](CN(C)C(=O)Nc2ccccc2)OCCCC[C@H](C)Oc2ccc(NC(=O)CCCN(C)C)cc2C1=O	25.5	16.2
C[C@H](CO)N1C[C@H](C)[C@@H](CN(C)C(=O)Nc2ccc(F)cc2)Oc2c(NC(=O)Nc3ccc(C(F)(F)F)cc3)cccc2C1=O	?	/
CC(C)CC#Cc1cnc2c(c1)C(=O)N([C@H](C)CO)C[C@@H](C)[C@H](CN(C)Cc1ccccc1F)O2	-20.8	-19.0
COc1cccc(NC(=O)N(C)C[C@H]2Oc3cc(C#Cc4ccccc4)ccc3S(=O)(=O)N([C@H](C)CO)C[C@H]2C)c1	-18.2	-10.7
COCC(=O)N1[C@H](CO)[C@H]2c3ccccc3N(C(=O)c3cccnc3)C[C@H]21	9.9	8.1
CNC(=O)C[C@@H]1CC[C@@H]2[C@H](COc3ccc(NC(=O)Nc4cccc(Cl)c4)cc3C(=O)N2C)O1	2.3	5.6

Some of the compounds tested; count on the stated rates, not on these rows.
